BJeLR viability = kills HRASV12-expressing BJeLR cells; AID 1554; BJeLR (HRASV12) viability, CellTiter-Glo ATP luminescence, 48 h; reference of the scale not given here; inhibition, % (test concentration not listed); 300,000 tested, 0.17% active;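 active = replicate mean above 50%; inconclusive = above 50% but judged a plate artefact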;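 also: 50 nL library stock added to about 25 µL; numbers are from one replicate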
Sa RN4220 lethal = S. aureus RN4220 growth inhibition | inhibition, % (test concentration not listed) | OD600, 16 h | AID 1259311 | 330,000 tested, 0.33% active;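 active = z-score of -3 or lower and OD600 up to 0.18 on both plates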;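 also: plate controls were untreated cells for no effect and reference antibiotic for full effect; stock transfer was 100 nL into about 80 µL; one replicate is shown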
PrP 5UTR inh = suppresses PrP 5' UTR mRNA reporter expression. 340,000 tested, 0.35% active. cell-based PrP 5' UTR mRNA reporter, plate reader. inhibition, % (no concentration beside the values);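 active = every replicate at 50% or more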;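 also: 0 = median of the neutral control wells; tested in H4 reporter cells; numbers are from one replicate; inactives centre near -14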
Autofluor counter = counter-screen for toxin protease inhibitors: compound fluorescence; compound autofluorescence counterscreen, microsphere flow cytometry; active compounds read high; fluorescence intensity (test concentration not listed); 360,000 tested, 3.1% active;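 active = at least 3 SD above the mean of all compounds, about 16000 in these data; inconclusive = too few beads counted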;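 also: 100 nL of 1 mM stock went into each well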
Mtb hypoxia rep = Mtb hypoxia fluorescent reporter inhibition; M. tuberculosis hypoxia-regulated fluorescent reporter, fluorescence; fluorescence inhibition, % (no concentration beside the values); 300,000 tested, 0.1% active; AID 1159583;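 active = 35 to 45% if threefold the growth effect, above 45% if 1.5-fold the growth effect; inactive = the rest, general growth blockers included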;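 also: wells of about 50 µL received 100 nL stock; 0% = vehicle wells and 100% = reference inhibitor wells; whole bacteria with a GFP reporter of the hypoxia response; strong numbers were not always called active; many hits fall short of the cut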
ugtP null kill = growth inhibition of S. aureus ugtP deletion strain. S. aureus RN4220 ugtP deletion, OD600 growth, 16 h; some inactives read as strong as hits. growth inhibition, % (concentration not given with the values). 330,000 tested, 0.54% active. AID 1259309;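 active = z-score under -3 and OD600 up to 0.15 on both plates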;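 also: plate controls were untreated wells for no effect and antibiotic for full effect; wells of about 80 µL received 100 nL stock; the first replicate is given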
Mtb hypoxia rep growth = further read-out of Mtb hypoxia rep, marked with its call; growth inhibition, %; measured here: M. tuberculosis growth (absorbance);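 0% = vehicle and 100% = reference antibiotic; read after six days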
An asterisk follows results filed as active; ? = inconclusive; . = no result given; & = joins results of further samples.

SMILES	BJeLR viability	Sa RN4220 lethal	PrP 5UTR inh	Autofluor counter	Mtb hypoxia rep	Mtb hypoxia rep growth	ugtP null kill
CSCC(=O)N1CCC(n2nccc2NC(=O)c2ccc3c(c2)OCO3)CC1	7	6.8	-43	5550	6	-10	4
C=CCSc1nnc2c(n1)-c1cccc3cccc-2c13	5	6.9	-2	4637	3	10	16
CCOC(=O)CSc1nc(-c2ccccc2)nc2ccc(F)cc12	-5	4.3	-6	?	0	-5	13
COc1ccc(NC(=O)c2cc3c(-c4ccc(OC)c(OC)c4)nn(C)c3s2)cc1OC	19	3.5	-24	4579	1	16	-3
CCOC(=O)c1nnn(CC(=O)NC(=O)Nc2ccccc2)c1C(=O)OCC	-12	3.7	-24	4123	12	4	3
CCn1c(=O)c([N+](=O)[O-])c(NCCc2ccccc2)c2ccccc21	6	7.8	7	4642	3	8	5
O=C(O)CCc1ccc(-c2ccc(Br)cc2)n1NC(=O)c1ccc([N+](=O)[O-])cc1	8	4.3	-22	4447	7	15	10
CN(C)C(=O)c1ccc(NC(=O)c2sccc2-c2ccccc2)cc1	1	-0.4	-23	5823	5	12	-6
Cc1cc(=O)[nH]c(SCC(=O)N2CCC(Cc3ccccc3)CC2)n1	3	7.0	-35	4311	3	15	4
CS(=O)(=O)c1ccc(NC(=O)C2CC(=O)N(c3ccc4c(c3)OCCO4)C2)cc1 (configuration not stated)	-17	0.5	-29	7074	8	4	2
COc1cccc(N(C(=O)Cc2cccs2)C(C(=O)NC2CCCC2)c2ccncc2)c1 (configuration not stated)	4	2.9	-13	5466	-2	9	7
O=[N+]([O-])c1cc(C=NO)ccc1SCc1ccccc1Cl	.	0.2	.	.	2	4	-16
O=C(CSCc1ccc([N+](=O)[O-])cc1)Nc1ccc(S(=O)(=O)N2CCCCCC2)cc1	-1	8.6	-13	2167	8	-4	-7
COCCN1C(=O)N[C@@H](c2cccc(F)c2)C(C(=O)OC)=C1C	-17	.	-3	4177	.	.	.
CCc1ccc(C2CC=C(C(=O)O)C(c3cccc(Cl)c3)N2S(=O)(=O)c2ccc(C)cc2)cc1 (configuration not stated)	.	23	.	.	-4	1	61
C=CCN(C(=O)CCC(=O)O)C1CC(=O)N(c2ccc(OC)cc2)C1=O (configuration not stated)	3	1.4	6	3235	3	1	-6
Cc1ccc(OCCCC(=O)N2CCOCC2)cc1	5	3.3	-23	2490	.	.	0
CCOC(=O)N1CCN(Cc2nc(-c3cccc(Cl)c3)no2)CC1	-14	6.7	-23	3417	8	2	1
COc1cccc(C=NN2CCCCCC2)c1OC	.	6.9	-80	4057	3	2	5
CCC(=O)Nc1ccc(SC#N)cc1C	5	11	-10	9402	13	10	8
COc1ccc(CNC(=O)COc2ccc([N+](=O)[O-])cc2)cc1	0	-0.9	-22	19432*	-4	1	-2
COC(=O)COc1ccc2oc(=O)cc(-c3cc4ccccc4o3)c2c1	4	6.6	-14	5788	-1	1	-15
COc1ccc(Cc2nnc(SCC(=O)c3ccc(OC)cc3)o2)cc1	-1	-2.0	-25	4402	1	4	3
COc1ccc(O)c(C2=Nc3ccccc3N=C(c3cccs3)C2)c1	1	-0.7	-17	1955	-2	1	9
C/C(Cn1cnc([N+](=O)[O-])n1)=N\NC(=O)c1ccc(O)cc1O	3	.	-13	2737	.	.	.

Copied from above, 3 compounds:
SMILES	BJeLR viability	Sa RN4220 lethal	PrP 5UTR inh	Autofluor counter	Mtb hypoxia rep	Mtb hypoxia rep growth	ugtP null kill
COc1ccc(Cc2nnc(SCC(=O)c3ccc(OC)cc3)o2)cc1	-1	-2.0	-25	4402	1	4	3
COc1ccc(O)c(C2=Nc3ccccc3N=C(c3cccs3)C2)c1	1	-0.7	-17	1955	-2	1	9
C/C(Cn1cnc([N+](=O)[O-])n1)=N\NC(=O)c1ccc(O)cc1O	3	.	-13	2737	.	.	.

More records.
SMILES	BJeLR viability	Sa RN4220 lethal	PrP 5UTR inh	Autofluor counter	Mtb hypoxia rep	Mtb hypoxia rep growth	ugtP null kill
CCCCN(C)C(=O)C1CCC(CNS(=O)(=O)c2ccc3c(c2)CC(C)N3C(C)=O)CC1 (configuration not stated)	2	1.8	-18	5277	13	0	5
Cc1ccccc1NCC(=O)NN=Cc1ccc([N+](=O)[O-])cc1	.	-7.9	.	.	-2	-12	-10
Cc1cccc(NC(=O)C(=O)NCCc2c[nH]c3ccccc23)c1C	11	3.7	-24	4816	7	5	8
Cc1nnc(SC(C)C(=O)Nc2ccc(S(=O)(=O)N3CCCCCC3)cc2)s1 (configuration not stated)	9	0.3	-16	22908*	7	2	-2
CN1C2CCC1CC(OC(=O)c1ccc(Cl)cc1)(C(=O)O)C2 (configuration not stated)	-8	-0.2	12	2485	3	-2	2
CC(C)CCCC(C)CCOC(=O)CN1CCCC1 (configuration not stated)	5	4.0	-12	.	8	-8	6
Cn1cc(CC(NC(=O)OC(C)(C)C)C(=O)NC(CO)Cc2ccccc2)c2ccccc21 (configuration not stated)	.	3.7&2.5	.	.	8&11	10&8	3&6
CCCCCCn1c(=O)c(-c2ccccc2)c(O)c2ccccc21	0	-4.3	-5	2658	.	.	-8
C#CCN1C=C(C(=O)OCC)C(C)N(Cc2ccccc2I)S1(=O)=O (configuration not stated)	.	3.9	-18	3781	6	9	23
CC(OC(=O)c1ccc(Cl)c(S(=O)(=O)N2CCc3ccccc32)c1)C(=O)Nc1ncc(Cl)cc1Cl (configuration not stated)	11	0.4	-18	2431	9	-2	-4
O=C(CSc1nc(-c2ccccc2)cs1)Nc1nccs1	3	-2.9	-13	9541	5	3	-7
COc1cc(C(=O)N/N=C/c2ccc(OC(=O)c3cccc(C)c3)cc2)ccc1O	6	.	-9	5992	.	.	.
Cc1ccccc1NC(=O)Cc1nc(COC(=O)Cc2c(F)cccc2Cl)cs1	.	1.5	-1	4256	2	5	0
COc1cc(NC(=O)c2ccc(C)cc2C)ccc1NC(=O)c1cccs1	-3	7.5	-27	2865	2	-1	12
CCCCNc1c(-c2ccc(SC(C)CC)cc2)nc2ccccn12 (configuration not stated)	11	.	-43	2991&4114	.	.	.
Cc1ccc(C(=O)N/C(=C\c2cn(C)c3ccccc23)C(=O)N2CCOCC2)cc1	-20	1.2	9	6064	2	0	3
C#Cc1ccc([C@H]2C=C(C(=O)OCC=C)O[C@@H](OCC)[C@@H]2CCCO)cc1	-2	.	-17	3491	.	.	.
CN(C)c1ccc(/C=N/NC(=O)c2ccc(NC(=O)c3ccccc3)cc2)cc1	-2	.	-27	5175	.	.	.
COc1ccccc1-c1cc(C(=O)N2CCN(S(=O)(=O)c3ccc(C)cc3)CC2)[nH]n1	-9	-1.6	-8	5966	.	.	-6
Cc1ccc(C=NNC(=O)c2ccc(OC3CCCC3)cc2)o1	.	4.4	.	.	7	7	2
CC(=NNC(=O)Cc1ccc([N+](=O)[O-])cc1)c1cccnc1	.	3.1	.	.	2	-2	4
Cc1ccc(S(=O)(=O)Oc2cccc(C=Nn3cnnc3)c2)cc1	.	5.4	.	.	3	-2	10
O=C(COC(=O)c1ccncc1)c1ccc(Cl)c(Cl)c1	4	-1.5	5	4951	-9	5	-8
CC1=C2C(CCS2(=O)=O)CC2(C1)C(=O)OC(C)(C)OC2=O (configuration not stated)	-8	1.5	-4	4427	4	11	-5
O=C(Nc1nc(-c2cccnc2)cs1)c1ccccc1[N+](=O)[O-]	-3	5.5	-71	4219	5	-6	4
(continued)
SMILES	BJeLR viability	Sa RN4220 lethal	PrP 5UTR inh	Autofluor counter	Mtb hypoxia rep	Mtb hypoxia rep growth	ugtP null kill
C=CCN1C(=O)CN=C1Nc1cccc(C)c1	3	-1.2	-21	4038	.	.	3
CCN(Cc1ccncc1)C(=O)c1cccc(S(=O)(=O)N2CCOCC2)c1	-7	4.6	-21	2736	5	5	-2
COc1ccc(NC2c3ccccc3C(=O)N2c2cccnc2)cc1 (configuration not stated)	0	4.8	-15	4578	4	-9	-1
COc1ccc(N2CCC(CNS(=O)(=O)c3cccc(C(F)(F)F)c3)C2)cc1 (configuration not stated)	-5	6.2	-11	3467	9	2	-6
COc1nc(Nc2ccc(OC)c(Cl)c2)nc(OC)n1	-3	-3.7	-9	4152	.	.	4
O=C1CCCN1C(=O)CSc1nnnn1-c1cccc(F)c1	.	-0.7	-20	3822	8	10	0
Cc1cc(Nc2ccc(Cl)cc2)n2nnnc2n1	-1	.	10	2266	.	.	.
CN(C)c1ccc(C(=O)N(Cc2ccccc2)Cc2ccccc2)cc1	1	4.3	10	4272	3	6	1
CCc1ccc(C(C(=O)NC2CCCC2)N(C(=O)c2csnn2)C2CC2)cc1 (configuration not stated)	-3	1.6	-28	3718	-5	0	7
COC(=O)c1ccc(N2Cc3ccccc3/C2=N\C(=O)Nc2ccccc2)cc1	-4	.	-1	2040	.	.	.
Cc1cc(Cl)ccc1OCC(=O)n1cc(C(=O)c2cc(Cl)ccc2O)cn1	-6	0.8	.	.	7	10	9
C/C(=N\NC(=O)c1c([N+](=O)[O-])c(C)nn1C)c1ccc(NC(=O)c2ccc(C)o2)cc1	9	.	-22	5076	.	.	.
O=C(NC1CCCCC1)c1ccccc1-c1ccccc1	16	4.2	-18	9449	8	5	5
Cc1nnc(Nc2ccc(O)cc2)[nH]c1=O	5	1.3	-24	4444	3	-3	3
COc1cccc(C(=O)NNC(=O)Cc2ccc([N+](=O)[O-])cc2)c1	-6	5.2	-5	2306	7	6	14
COc1cc(-c2c(C(C)=O)c(C)nc3c2C(=O)c2ccccc2-3)cc(OC)c1OC	4	-0.9	-1	3334	6	7	7
Cn1c(SCC(=O)N2c3ccccc3CCc3ccccc32)nnc1-c1ccc(O)cc1	5	-0.2	-26	2175	1	7	4
CC1=Nn2c(nnc2-c2ccccc2F)SC1	4	4.6	-4	?	9	2	9
O=C(CCC(=O)NNC(=O)Cc1ccccc1)NCc1ccccc1	-3	7.2	-11	4525	2	-4	6
CCCOc1ccc(C2=CC(=O)CC(c3ccc(OC)cc3)C2)cc1 (configuration not stated)	.	3.5	.	.	14	17	59
NP(=O)(Oc1ccccc1)c1ccccc1 (configuration not stated)	.	5.7	-19	3833	3	1	10
CCC1(C)N=C(N)Nc2nc3cc(C)c(C)cc3n21 (configuration not stated)	4	.	-18	3228	.	.	.
Nc1nnc(SCC(=O)NCC(=O)Nc2ccc(F)c(F)c2F)s1	.	5.8	-17	3515	7	5	8
Cc1ccc(C(=O)Nc2ccc(Oc3cccc(C(F)(F)F)c3)nc2)cc1	5	3.8	-11	5679	-6	-3	8
CCOC(=O)CSc1ccc(C(=O)Nc2ccc(Cl)cc2)cn1	1	3.8	-26	3538	18	10	12

2 entries from above, reformatted:
Structure,BJeLR viability,Sa RN4220 lethal,PrP 5UTR inh,Autofluor counter,Mtb hypoxia rep,Mtb hypoxia rep growth,ugtP null kill
COc1cccc(C(=O)NNC(=O)Cc2ccc([N+](=O)[O-])cc2)c1,-6,5.2,-5,2306,7,6,14
NP(=O)(Oc1ccccc1)c1ccccc1 (configuration not stated),.,5.7,-19,3833,3,1,10

The results go on:
SMILES	BJeLR viability	Sa RN4220 lethal	PrP 5UTR inh	Autofluor counter	Mtb hypoxia rep	Mtb hypoxia rep growth	ugtP null kill
COc1ccc(-n2nnc3c(SCC(=O)NCC4CCCO4)ncnc32)cc1 (configuration not stated)	.	-15	-8	2612	8	11	-3
CC(C)(C)OC(=O)N1CCN(C(=O)C(Cc2ccc(O)cc2)n2cc(CCO)nn2)CC1 (configuration not stated)	.	6.6	.	.	6	11	0
CC(=O)c1cccc(NC(=O)c2c(-c3c(F)cccc3Cl)noc2C)c1	.	4.1	-29	2958	8	-2	8
COc1ccc2sc(-c3ccc(S(C)(=O)=O)cc3)c(-c3ccc(SC)cc3)c2c1	.	1.8	-17	3993	-1	10	1
O=C(CSc1nnc(CNC(=O)c2ccc(F)cc2)o1)NCc1ccc(F)cc1	-15	-6.2	-11	5643	8	2	3
CCc1ccc(NC(=O)COC(=O)CN2C(=O)COc3ccccc32)cc1	3	0.7	-17	3834	12	8	6
CC(C)N(C(=O)[C@H]1C[C@H](CC(=O)NCC23CC4CC(CC(C4)C2)C3)C(=O)N2CCc3c([nH]c4cc(-c5ccco5)ccc34)[C@]12C)C(C)C	.	-3.1	-7	3884	-5	8	-20
C=CS(=O)c1sc(Cl)c(N2CCOCC2)c1[N+](=O)[O-] (configuration not stated)	-1	26	.	.	-4	15	21
Cc1ccc(-n2c(SCC(=O)c3c(N)n(C)c(=O)n(C)c3=O)nc3sc4c(c3c2=O)CCCC4)c(C)c1	3	-11	-18	2450	7	8	-17
